# From PubChem BioAssay
# NPYLR7 ag – agonists of mosquito NPYLR7 receptor, primary screen, cell-based, Aedes aegypti, calcium fluorescence, mosquito biting behavior; Aedes aegypti neuropeptide Y-like receptor 7 (NPYLR7); HEK293T NPYLR7/Galpha15, GCaMP6s calcium fluorescence; activation, % at 10 µM; 270,000 compounds, 0.15% hits; AID 1259423, 2018; in the data active = activation above about 40%;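 also: 0% = vehicle and 100% = reference agonist at the receptor; some compounds past the cut are filed as inactive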
# NPYLR7 ag max-min – recorded beside NPYLR7 ag, whose call it bears; activation, %; measured here: Max-Min RFU normalised activation; some inactives read as strong as hits;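 span of the calcium signal over five minutes; 0% = vehicle and 100% = native peptide agonist; compound fluorescence can raise it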
# The depositor's hits bear a star; & = joins results of further samples. Only part of the results is shown; count on the stated rates, not on these rows.
SMILES,NPYLR7 ag,NPYLR7 ag max-min
COc1ccc(CNC(=S)NCc2ccc(OC)cc2)cc1,0,-3
COCCOCC(=O)N1CCCN(Cc2cc(=O)c(OCc3cccc(F)c3)co2)CC1,-1,2
O=S(Cc1cccc(C(F)(F)F)c1)Cc1ccc(Cl)cc1Cl (configuration not stated),-1,-4
CCN(CC)S(=O)(=O)c1cccc(C(=O)OCC(=O)c2ccccc2)c1,-1,1
C=CCNC(=O)c1ccccc1N1CCC(NC(=O)CCc2ccccc2)CC1,-2,7
COc1cc(OC)cc(N2CCN(C(=O)[C@@H]3CCCN3C(=O)[C@H](C)CSC(C)=O)CC2)c1,-6,0
Cc1ccc(C)c(Cn2ccnc2CN(C(=O)NC(C)C)C(C)C)c1,1,9
CCCCC(=O)OCC1CN=C(c2ncccn2)NO1 (configuration not stated),7,3
COc1ccccc1NC(=O)NCCS(=O)(=O)c1c(C)n(Cc2ccc(F)cc2)c2ccccc12,4,6
C=C(C)COc1cccc(C(=O)N(C)Cc2cnn(CC)c2C)c1,-2,-10
Cc1ccc(N2CCn3c2nc2c3c(=O)n(CCC(C)C)c(=O)n2C)cc1C,8,6
COC(=O)C1=C(C)NC(=S)NC1c1ccc(C)cc1 (configuration not stated),0,-1
CS(=O)(=O)c1ccc(-n2nc(C(=O)O)c(=O)n(Cc3ccccc3F)c2=O)cc1,32,33
CCCCCCN(C(=O)C(c1ccccc1)c1ccccc1)C(CC)c1nc2ccccc2c(=O)n1-c1ccc(C)c(C)c1 (configuration not stated),-3,2
CCCn1c(=O)[nH][nH]c1=S,21,15
O=c1c2ccccc2c(C=Nc2ccc3c(c2)OCCO3)c(O)n1-c1ccc2c(c1)OCO2,-2,-5
CC1CC(C)CN(Cc2nc3ccccc3c(=O)n2Cc2ccco2)C1 (configuration not stated),-9,-10
CC(C)CN(CN1C(=O)C(C)N(c2ccc(Cl)cc2)C1=O)C1CC1 (configuration not stated),1,2
Cn1ccnc1CN1CCN(C(=O)CCN2Cc3ccccc3OC(c3ccccc3F)C2)CC1 (configuration not stated),28,13
O=C(CN(CCCN1CCOCC1)C(=O)Nc1ccccc1C(F)(F)F)N(Cc1ccccc1)Cc1ccco1,-5,-1
Cc1nc(N)nc(C)c1CC(=O)NC(c1nccn1C)C(C)C (configuration not stated),-2,-4
O=C1C=C(Nc2ccccc2Cl)C(=O)N1Cc1ccco1,10,4
O=C1CN(S(=O)(=O)c2ccccc2)CC(O)CN1Cc1cccc(F)c1 (configuration not stated),22,20
COc1ccc(NC(=O)CSc2ncnc3sc(C)cc23)c(OC)c1,-10,-12
O=C(Cc1ccccc1C(=O)Nc1ccc2c(c1)CCC2)NCC1CCN(Cc2cccnc2)CC1,4,7

# Six neighbouring records already listed, quoted:
SMILES,NPYLR7 ag,NPYLR7 ag max-min
CCCCCCN(C(=O)C(c1ccccc1)c1ccccc1)C(CC)c1nc2ccccc2c(=O)n1-c1ccc(C)c(C)c1 (configuration not stated),-3,2
CCCn1c(=O)[nH][nH]c1=S,21,15
O=c1c2ccccc2c(C=Nc2ccc3c(c2)OCCO3)c(O)n1-c1ccc2c(c1)OCO2,-2,-5
CC1CC(C)CN(Cc2nc3ccccc3c(=O)n2Cc2ccco2)C1 (configuration not stated),-9,-10
CC(C)CN(CN1C(=O)C(C)N(c2ccc(Cl)cc2)C1=O)C1CC1 (configuration not stated),1,2
Cn1ccnc1CN1CCN(C(=O)CCN2Cc3ccccc3OC(c3ccccc3F)C2)CC1 (configuration not stated),28,13

# Other structures.
SMILES,NPYLR7 ag,NPYLR7 ag max-min
CCOC(=O)c1ccc(N2CC(C)Cn3c2nc2c3c(=O)n(C)c(=O)n2C)cc1 (configuration not stated),9,4
O=C(NCCS(=O)(=O)N1CCSCC1)c1ccc(Cl)o1,-4,-6
CN(C)c1ccc(C=C(C#N)C(=O)C(C)(C)C)cc1,0,-3
O=c1c(O)c(-c2ccc(O)cc2O)oc2cc(O)cc(O)c12,5,-46
O=C(c1ccc(-c2ccccc2)cc1)N1CCC2(CC1)NC(=O)N(Cc1ccccc1)C2=O,5,4
CC(C)n1ccc(CNC(c2cccs2)C(C)(C)C)n1 (configuration not stated),-17,-16
CCCc1nnc(C(=O)N2CCC3(CC2)CNC(=O)O3)o1,7,-5
Clc1cc(CSc2nnc(-c3c[nH]c4ccccc34)o2)cc2c1OCCO2,1,0
O=C(c1cc([N+](=O)[O-])cc([N+](=O)[O-])c1)N1CCN(c2ccccc2F)CC1,-2,-7
O=S(=O)(c1ccc2c(c1)OCCO2)N1CN(C2CCCC2)c2nc3ccccc3nc21,3,9
Cn1cccc1CNC(=O)N1CCN(c2cc(F)ccc2F)CC1,7&-24,3&-26
CC(C)c1csc(CN2CCC(CCC(=O)Nc3ccccc3Cl)CC2)n1,4,-6
Cc1cc(Br)ccc1NC(=O)CN(C)C(C)C(=O)Nc1ccc(Cl)cn1 (configuration not stated),-2,1
COC(=O)C(C)OC(=O)c1ccc(Oc2nc(N(C)C)nc(N(C)C)n2)cc1 (configuration not stated),2,1
O=C(O)c1ccc(NS(=O)(=O)c2ccc(Cl)c(C(=O)Nc3ccccc3)c2)cc1,5,4
Cc1ccc(S(=O)(=O)NCCc2sc(-c3ccc(Cl)cc3)nc2C)s1,11,4
COc1ccc2c(c1)CN(C(=O)Nc1ccc3c(c1)CCCN3C)CC2,-17,-20
COc1cc(CNc2ccc(CNc3ncn[nH]3)cc2)cc(Cl)c1OCc1ccccc1,-12,-18
Cc1c(CC(=O)NC2CCOC(C)(C)C2)cnn1-c1ccccc1 (configuration not stated),5,-2
Cc1cc(C(=O)N/N=C\c2cccnc2)c2ccccc2n1,12,18
O=C(CNCc1ccco1)N1CC(=O)N(c2cccc(Cl)c2)C1,25,31
O=C(c1cccs1)C1CCCN(Cc2nc(C(c3ccccc3)c3ccccc3)no2)C1 (configuration not stated),-6,-8
CC(C)c1nnc2n1CCN(CC(=O)N1CCc3ccccc3C1)C2,-1,-7
COCCCNC(=O)Cn1ncn2cccc2c1=O,8,6
COc1ccccc1-n1cc(-c2ccccc2)c2c(=S)nc[nH]c21,-11,-13

# Whole records as entered above. Order of values: NPYLR7 ag	NPYLR7 ag max-min
# Cc1cc(C(=O)N/N=C\c2cccnc2)c2ccccc2n1 is entered as 12	18
# Cc1ccc(S(=O)(=O)NCCc2sc(-c3ccc(Cl)cc3)nc2C)s1 is entered as 11	4

# (list continues)
SMILES,NPYLR7 ag,NPYLR7 ag max-min
Nc1nc(SCc2cccc([N+](=O)[O-])c2)[nH]c(=O)c1NC(=O)c1ccc(F)cc1,22,16
O=C(c1cccnc1)N1CCC(n2cnc3cc(C(F)(F)F)ccc32)CC1,-2,3
CCCCOc1ccc(C(=O)N2CCN(C(=O)CN3CCc4sccc4C3c3cccc(F)c3)CC2)cc1 (configuration not stated),13,2
O=C(Cc1n[nH]c2nc3ccccc3n2c1=O)c1ccc(Cl)cc1,0,0
Cc1ccccc1CSc1nnc2n1CCN2c1ccccc1,-3,-2
CC(C)c1noc(C(C)NC(=O)c2cccc3c2NCCC3)n1 (configuration not stated),6,5
O=C(Cc1ccccc1)N1CCCC(OCc2ccc(OC(F)(F)F)cc2)C1 (configuration not stated),-3,1
CCOC(=O)C(c1cccc(OC)c1)C1C=CC(NC(=O)c2ccc(OC(F)(F)F)cc2)C1 (configuration not stated),2,2
COc1ccc(C(C)NC(=O)C2CCN(Cc3ccc(Oc4ccccc4)cc3)CC2)cc1OC (configuration not stated),11,3
CCC(=O)N(CCOC)Cc1ccc(OCc2nc(CO)cs2)cc1,1,9
O=C(NCC1CCCO1)c1ccc(-c2ccc(F)cc2)o1 (configuration not stated),9,2
c1ccc(Cc2nnc3sc(-c4cnccn4)nn23)cc1,5,0
Cc1nccn1CCCCn1nc(Br)nc1Br,16,13
CCOCCn1c(=NC(=O)CCS(=O)(=O)c2ccccc2)sc2cc(Br)ccc21,16,11
Cc1ccc(N(CC(=O)N2CCN(c3ccccc3)CC2)S(=O)(=O)c2ccc(F)cc2)cc1,2,1
C=CCOCC(O)CN(Cc1c(-c2ccccc2)nn(C)c1Oc1ccc(F)cc1F)CC1CC1 (configuration not stated),-6,0
COCCNC(=O)CC[C@]12CC[C@](C)(O)C[C@H]1C(C)(C)C[C@@H]2NC(=O)Cc1ccccc1,-6,-9
CC(C)=CC(=O)N(Cc1cccnc1)CC1CCN(Cc2ccccc2C)CC1,1,-7
CCOC(=O)C1CCCN(C(=O)c2nn(-c3ccc(C)c(Cl)c3)c(=O)n(CC)c2=O)C1 (configuration not stated),1,11
O=C1OC(c2cc(Cl)ccc2Cl)=N/C1=C\c1ccc2cccc3c2c1CC3,-2,5
CC1(C)CNC(=O)c2nc(CCNc3cccnc3)[nH]c2C1,3,-1
O=C(NCc1cccs1)c1ccc2sc([C@H]3C[C@H](O)[C@@H](CO)O3)nc2c1,3,0
O=C(NC(C(=O)N/N=C\c1ccc(Cl)c([N+](=O)[O-])c1)c1n[nH]c(=O)c2ccccc12)c1ccccc1 (configuration not stated),-14,-21
CCN(CC(=O)Nc1cc(-c2ccccc2)nn1-c1ccc(F)cc1)C(=O)Nc1c(C(C)C)cccc1C(C)C,8,23
CCS(=O)(=O)Oc1cccc(CN(Cc2ccco2)C(=O)Nc2ccc(Br)cc2)c1,5,3

# Compounds from the list above containing a COOH group, in the order listed:
SMILES,NPYLR7 ag,NPYLR7 ag max-min
CS(=O)(=O)c1ccc(-n2nc(C(=O)O)c(=O)n(Cc3ccccc3F)c2=O)cc1,32,33
O=C(O)c1ccc(NS(=O)(=O)c2ccc(Cl)c(C(=O)Nc3ccccc3)c2)cc1,5,4

# Returning to the listing, starting 4 compounds before the break.
SMILES,NPYLR7 ag,NPYLR7 ag max-min
O=C(NCc1cccs1)c1ccc2sc([C@H]3C[C@H](O)[C@@H](CO)O3)nc2c1,3,0
O=C(NC(C(=O)N/N=C\c1ccc(Cl)c([N+](=O)[O-])c1)c1n[nH]c(=O)c2ccccc12)c1ccccc1 (configuration not stated),-14,-21
CCN(CC(=O)Nc1cc(-c2ccccc2)nn1-c1ccc(F)cc1)C(=O)Nc1c(C(C)C)cccc1C(C)C,8,23
CCS(=O)(=O)Oc1cccc(CN(Cc2ccco2)C(=O)Nc2ccc(Br)cc2)c1,5,3
CC(C)c1cc(C(=O)Nc2ccccc2OC2CCOC2)n(C)n1 (configuration not stated),12,10
COc1ccc(S(=O)(=O)N(CC(=O)Nc2c(C)n(C)n(-c3ccccc3)c2=O)c2ccc(C)cc2)cc1OC,-7,-8
CC1(C)CN(Cc2ccc3c(c2)OCO3)C(=O)c2cccnc2O1,6,18
CN(C)CCNC(=O)c1coc(N2CCN(Cc3ccccc3C#N)C2=O)n1,0,-1
COCCNC(=O)C1(C)CCCN(Cc2nccs2)C1 (configuration not stated),-1,-2
CCC(C)CN(CC(=O)N1CCc2sccc2C1COc1ccc(Cl)c(C)c1)S(=O)(=O)c1ccc(C)cc1 (configuration not stated),-3,4
CS(=O)(=O)c1ccc(CCNc2ccc(Cl)c(C#N)n2)cc1,-5,-6
Cc1noc(C)c1C(=O)N1CCC1(C)C(=O)NS(=O)(=O)c1cccc(Cl)c1 (configuration not stated),2,2
COc1ccc(NC(=O)CSc2nnc(CNC(=O)COc3ccccc3)n2-c2ccc(Br)cc2)cc1,-3,-1
CCn1cc(Cn2cc(-c3ccc(OC)cc3OC)nn2)cn1,0,-1
O=C(c1ccc(Cl)c(Cl)c1)N1CCCC(OCCOc2ccccc2)C1 (configuration not stated),0,11
Cn1cc(S(=O)(=O)N2CCC(C(=O)Nc3cc(Cl)cc(Cl)c3)CC2)cc1C(N)=O,0,1
CCCn1c(N)c(N(C)C)c(=O)[nH]c1=O,3,8
O=c1c2ccc(Cl)cc2[nH]c(=S)n1C1CCCC1,29&2,25&-3
COc1ccccc1-c1coc2c(CN3CCOCC3)c(O)ccc2c1=O,-3,-7
Cc1cc(Br)ccc1NC(=O)CN(C)C(=O)CN1C(=O)C(C)Oc2ccccc21 (configuration not stated),-2,-6
